Vaccinia mCherry – inhibitors of vaccinia virus infection (mCherry reporter signal); Vaccinia virus mCherry reporter infection, fluorescence; about a quarter of the inactives have no number; Potency, µM (highest dose often 36.5 µM), for inactives: top-dose activity change, negative = inhibition, most hits filed as inhibitors; 310,000 compounds, 0.63% hits; active = well fitted inhibition curve with a large enough effect; inconclusive = small, poorly fitted or top-dose-only effect; inactive = no such curve, though single readings can be large or run the other way; tested in A549 cells; also: nearly all actives have a fitted effect of over 35% in size; inactives centre near -10
Vaccinia Venus – vaccinia inhibition (Venus reporter) | Vaccinia virus Venus reporter expression, fluorescence | Potency, µM (doses to about 36.5 µM), without a hit: at the highest dose activity change, negative = inhibition, most hits filed as inhibitors | 330,000 compounds, 0.46% hits; active means well fitted inhibition curve with a large enough effect; inconclusive means small, poorly fitted or top-dose-only effect; inactive means no such curve, though single readings can be large or run the other way; tested in A549 cells; also: nearly all actives have a fitted effect of over 30% in size; inactives centre near -10
Active calls of the source: *; i = inactive; ? = inconclusive; nt = no result given; [ ] = another dose, or the depositor's remark. % is scaled to controls: 0 for no effect and ±100 for the full control effect; potency is read from the fitted curve at half-maximal effect.

SMILES	Vaccinia mCherry	Vaccinia Venus
O=C(CNC1CCCC1)Nc1ccc(S(=O)(=O)N2CCCCC2)cc1	-7.9%	-9.3%
CC(C)CNC(=O)COC(=O)c1ccccc1SCC(=O)NCC(C)C	-1.6%	-4.0%
CCCN1CCC(=O)N([C@H](CN=[N+]=[N-])CC(C)C)CC1	i	-7.6%
COc1cc(NC(=O)C2CCCO2)c(OC)cc1Cl (configuration not stated)	nt	-18.9%
CCc1nc(SCc2ccc([N+](=O)[O-])cc2)n[nH]1	-7.4%	-9.1%
N/C(=N\OC(=O)COc1ccc(Cl)cc1)c1cccnc1	0.4%	-0.8%
Cn1c(=O)c2c(-c3ccc(Cl)cc3)n(CCc3ccccc3)cc2n(C)c1=O	-12.7%	-14.3%
CCNC(=S)NNC(=O)c1ccc(OC(F)F)cc1	-14.6%	-5.5%
CNNC(=O)C(=O)NNS(=O)(=O)c1ccccc1	i	-5.8%
O=C(CSc1cn(CC(=O)N2CCCCC2)c2ccccc12)Nc1ccccc1F	-15.5%	-12.3%
COc1ccc(/C=N/NC(=O)C(C)n2nnc3ccccc32)cc1OC (configuration not stated)	i	-8.1%
O=C(Cc1n[nH]c(=O)c2ccccc12)Nc1cccc(S(=O)(=O)N2CCCC2)c1	-2.7%	-5.9%
Fc1ccc(-c2cn3cc(Cc4ccccc4Cl)sc3n2)cc1	-4.9%	-11.0%
CCc1cc(=O)[nH]c(SCCCF)n1	5.5%	-0.3%
C=CCOC(=O)c1sc(NC(=O)c2ccc(OC)cc2)nc1C	-5.2%	-4.6%
CCOC(=O)c1sc(NC(=O)CC)c(C#N)c1C	i	13.2%
CC(C)(C)n1nc(-c2ccc(Cl)cc2)c2c(N)ncnc21	-5.9%	?
O=C(NC1=NCCS1)c1cccc(F)c1	-13.8%	-7.8%
CC(=O)NC(c1ccc(F)c(F)c1)c1nc(-c2ccccc2)cs1 (configuration not stated)	i	-10.5%
CC(C)c1ccc(/C=C(\c2nc3ccccc3[nH]2)S(=O)(=O)c2ccccc2)cc1	8.91µM*	10µM*
CN(C)CC1CSCCC1(O)c1ccccc1 (configuration not stated)	-14.4%	-13.1%
CCN(CC(=O)Nc1c(F)cccc1F)C(=O)CCCOc1ccccc1	i	-15.1%
CCN1CCN(c2ncnc3c2cnn3-c2cccc(C)c2)CC1	-13.5%	-9.0%
COc1ccc(S(=O)(=O)NCCS(=O)(=O)N2CCN(c3ccccc3)CC2)cc1C	-6.3%	-13.5%
CC1(C)C2CCC1(C)C1(C2)NC(=O)c2ccccc2O1 (configuration not stated)	-8.0%	-5.7%
CCCCCOC(=O)Cn1c(N2CCCCCC2)nc2c1c(=O)[nH]c(=O)n2C	nt	7.7%
COc1ccc(NC(=O)C2Cc3ccccc3N2C(=O)c2ccccc2)c(OC)c1 (configuration not stated)	-4.1%	1.0%
Cc1cc(C)cc(C(=O)NCC(=O)N2CCC3(CC2)NCCc2[nH]cnc23)c1	-15.4%	0.5%
CCOc1ccccc1NC(=S)Nc1ccccc1F	nt	-10.8%
COc1cc(C2C3C(C)N(C)C(=O)N(C)C3N(C)C(=O)N2C)ccc1O (configuration not stated)	nt	-13.6%
O=C1CCC(C(=O)N2CCN(c3cnccn3)CC2)CN1CCc1cccc(F)c1 (configuration not stated)	-18.1%	-9.4%
CCC(C)NC(=O)c1ccccc1NC(=O)Nc1ccccc1 (configuration not stated)	-13.4%	-3.2%
OCCn1c(CSc2nc3ccccc3n2CCO)nc2ccccc21	i	-11.5%
O=C(N1CCOCC1)N1CCCC(c2nc(-c3cccs3)no2)C1 (configuration not stated)	-3.0%	-3.7%
O=C1C=C(c2ccc(O)cc2)C[C@@H](c2ccc(Cl)cc2)C1	?	?
C[C@H](CO)N1C[C@H](C)[C@@H](CN(C)S(C)(=O)=O)Oc2c(NC(=O)Nc3ccc(C(F)(F)F)cc3)cccc2C1=O	i	?
CCn1c(SCC(=O)c2ccccc2)nc2sc3c(c2c1=O)CCN(C)C3	-12.9%	8.0%
O=C(CNc1ccc(Br)cc1)NC(=O)NC1CCCCC1	i	-16.6%
COc1cc(C2c3cc4c(cc3C3OC(=O)C2C3CO)OCO4)cc(OC)c1OC (configuration not stated)	-7.8%	?
Cc1cccn2c(=O)c(C=O)c(N3CC(C)OC(C)C3)nc12 (configuration not stated)	i	-7.9%

An excerpt of these results, with each value named.
Cc1cc(C)cc(C(=O)NCC(=O)N2CCC3(CC2)NCCc2[nH]cnc23)c1
  Vaccinia mCherry = -15.4%
  Vaccinia Venus = 0.5%

CCOc1ccccc1NC(=S)Nc1ccccc1F
  Vaccinia mCherry = nt
  Vaccinia Venus = -10.8%

Continued:
SMILES	Vaccinia mCherry	Vaccinia Venus
Cc1cc2c(cc1C)-n1nnnc1C(N1CCN(C(=O)OCc3ccccc3)CC1)C(=O)N2 (configuration not stated)	-29.1%	?
CCOC(=O)[C@]12CCC=C1N(Cc1ccccc1)C(=O)[C@H](CC(=O)N1CCSCC1)C2	-13.4%	-14.3%
NC(=O)CC[C@H](NC(=O)c1ccc(F)cc1)C(=O)OCC(=O)NCc1ccc(F)cc1	-3.6%	2.8%
CC(=O)NC(=S)Nc1ccc(NC(=S)NC(=O)c2ccc([N+](=O)[O-])cc2)cc1	-4.5%[7.34 µM]	-6.3%[7.34 µM]
COc1ccc(-n2c(=S)[nH]c3cc(C(=O)NCc4cccnc4)ccc3c2=O)cc1	i	-13.9%
COc1cccc(C(=O)Nc2ccccc2-c2nnc(-c3ccc(C(C)(C)C)cc3)o2)c1	2.3%	-4.2%
O=C(NCCCN1CCOCC1)c1ccccc1	nt	13.0%
Oc1ccccc1Nc1ccccn1	-10.6%	-1.2%
O=C(COc1ccc(/C=N/NC(=O)c2ccc(O)cc2)cc1)Nc1ccc([N+](=O)[O-])cc1	6.8%	-0.1%
CN1C(=O)C(=Cc2ccc(OCC(=O)Nc3ccccc3)cc2)C(=O)N(C)C1=O	-0.7%	-4.3%
Oc1c(CN2CCCCC2)cc(COCc2ccccc2)c2cccnc12	2.51µM*	?
COc1ccccc1-c1ccnc(-n2ncc(C(=O)N(C)C(C)c3ccon3)c2C2CC2)n1 (configuration not stated)	-10.4%	2.3%
CCN=C(Nc1ccc(Cl)cc1)c1cccnc1	-15.4%	2.6%
O=C1COc2ccc(C(=O)COC(=O)Cn3cnc4ccccc43)cc2N1	-10.5%	-7.4%
COc1ccc2nc(N3C(=O)C(O)=C(C(=O)c4ccco4)C3c3ccc(OC)c(OC)c3)sc2c1 (configuration not stated)	i	-16.1%
COC(=O)c1cc(OC)c(OC)cc1NC(=O)c1cc(OC)cc(OC)c1	-0.1%	-6.1%
Cn1c(CSCc2ccccc2)nnc1SCC(=O)Nc1ccc(C(=O)O)cc1	-3.7%	1.5%
CC(C)(C)OC(=O)N1CCC(c2c(C(=O)Nc3ccc4c(c3)OCCO4)cnn2-c2ccc(Cl)cc2)CC1	-6.9%	-22.1%
O=C(NC1CCCC1)c1cc(-c2ccc(Cl)c(Cl)c2)on1	i	-4.8%
CCOc1ccc(C(=O)/C=C/Nc2ccc(S(=O)(=O)Nc3onc(C)c3C)cc2)cc1	-8.4%	-18.3%

No new results follow: entries from further up.
SMILES	Vaccinia mCherry	Vaccinia Venus
CCN=C(Nc1ccc(Cl)cc1)c1cccnc1	-15.4%	2.6%
O=C1COc2ccc(C(=O)COC(=O)Cn3cnc4ccccc43)cc2N1	-10.5%	-7.4%
COc1ccc2nc(N3C(=O)C(O)=C(C(=O)c4ccco4)C3c3ccc(OC)c(OC)c3)sc2c1 (configuration not stated)	i	-16.1%
COC(=O)c1cc(OC)c(OC)cc1NC(=O)c1cc(OC)cc(OC)c1	-0.1%	-6.1%
Cn1c(CSCc2ccccc2)nnc1SCC(=O)Nc1ccc(C(=O)O)cc1	-3.7%	1.5%
CC(C)(C)OC(=O)N1CCC(c2c(C(=O)Nc3ccc4c(c3)OCCO4)cnn2-c2ccc(Cl)cc2)CC1	-6.9%	-22.1%

Continued.
SMILES	Vaccinia mCherry	Vaccinia Venus
O=C1[C@H]2[C@@H](c3ccccc3)N[C@]3(CCCN(Cc4ccc(C(F)(F)F)cc4)C3=O)[C@H]2C(=O)N1Cc1ccccc1	-11.0%	?
COCCn1c(=NC(=O)c2ccc3c(c2)OCCO3)sc2cc(NC(C)=O)ccc21	-4.4%[7.34 µM]	-3.7%[7.34 µM]
COc1ccccc1[C@@]1(C)ON(c2ccccc2C(F)(F)F)C1=O	?	?
Cc1ccc(OCC(=O)N2CCOCC2)c([N+](=O)[O-])n1	i	-5.2%
Cc1noc(C)c1NC(=O)N(C)C[C@@H]1Oc2ncc(Br)cc2C(=O)N([C@@H](C)CO)C[C@H]1C	-2.2%	-18.7%
O=C(O)CCC(=O)NNC(=O)c1ccc(Br)cc1	-10.4%	-8.8%
Cc1ccccc1CN(c1ccc(C(=O)NCC2CCCO2)cc1)S(C)(=O)=O (configuration not stated)	i	-11.3%
CCOc1cc(S(=O)(=O)NCCc2ccc(OC)c(OC)c2)c(OCC)cc1-n1cnnn1	-8.8%	-10.4%
COCC1CCN(C(=O)c2cc(COc3ccc(-n4cncn4)cc3)on2)C1 (configuration not stated)	-12.0%	-5.1%
COc1ccc(N(CCCN2C(=O)c3cccc4cccc(c34)C2=O)C(=O)c2ccncc2)cc1	i	-17.4%
COc1ccc(COC(=O)CNC(=O)C2CCCCC2)cc1F	-14.6%	-12.8%
COc1cccc(CN2CCNCC2)c1	i	-3.6%
COc1cc(N)c(Cc2nccc3cc(OC)c(OC)cc23)cc1OC	?	0.6%
CCn1c2ccccc2c2cc(NC(=O)COc3ccc(C)cc3C)ccc21	-9.6%	-3.1%
CC(=O)c1cccc(NC(=O)C(C)OC(=O)CNC(=O)c2ccc(C)s2)c1 (configuration not stated)	-17.0%	-5.6%
CCN(C(=O)CSc1nncn1-c1ccccc1)C1CCS(=O)(=O)C1 (configuration not stated)	-14.2%	-9.2%
Cc1ccnc(NC(=O)CCCNC(=O)c2ccc(Cl)cc2)c1	-9.1%	-4.0%
Cc1ccccc1Cn1ccc(NC(=O)c2nn(C)cc2[N+](=O)[O-])n1	?	?
CCOc1ncccc1C(=O)Nc1cc(S(=O)(=O)N2CCCCCC2)ccc1OC	i	-19.8%
Cc1ccnc(SCc2cc(=O)c(OC(=O)c3ccco3)co2)n1	i	-22.9%
COc1ccc(CN2Cc3ccccc3OC(c3ccccc3OC)C2)cc1O (configuration not stated)	-25.1%	-19.7%
COc1ccc(NC(=O)C2Cc3c(-c4ccc(Cl)cc4)ccnc3O2)cc1 (configuration not stated)	-17.1%	-23.4%
O=C(Nc1ccccc1)Nc1nc2ccccc2s1	i	-4.0%
CC1(C)NC(=O)N(CC(O)COc2cccc(F)c2)C1=O (configuration not stated)	16.8%	2.4%
Cc1nc(NCc2ccccn2)c2ccccc2n1	?	-29.6%
Cc1cc2ncn(C(=O)N3CCCCC3)c2cc1C	-3.4%	-2.7%
NC(=O)CNC(=O)[C@@H]1CC2(CC(c3cccc([N+](=O)[O-])c3)=NO2)CN1C(=O)c1ccccc1 (some centres not stated)	-12.2%	3.8%
COc1cc2c(C#CCCO)c(-c3ccc(C#N)cc3)oc(=O)c2cc1OC	i	-5.9%
CC1CN(C(=O)Nc2ccc(C(=O)NCCc3ccccc3)cc2)c2ccccc2S1 (configuration not stated)	-17.1%	-15.0%
COc1ccc(CC(=O)NNC(=O)COc2ccc(C)cc2)cc1S(=O)(=O)N1CCOCC1	-6.9%	-1.9%
Cc1c(C(=O)NCc2ccc3c(c2)OCCO3)sc(=O)n1Cc1ccc(S(=O)(=O)N(C)C)cc1	i	-10.8%
N=C1SC(c2ccccc2)C(=O)N1c1ncc(Cc2ccccc2)s1 (configuration not stated)	-5.1%	-8.8%
CCOc1ccc(C2C(=O)N(C3CCCCCC3)CC(=O)N2CCc2ccc(Cl)cc2)cc1OC (configuration not stated)	-13.4%	-13.9%
COc1ccc2[nH]c3c(c2c1)CCN1C(=O)N([C@@H](C)C(=O)NCC2CCCO2)C(=O)[C@]31C (some centres not stated)	0.2%	4.1%
CCN(c1ccccc1)S(=O)(=O)c1ccc2ccccc2c1	-7.1%	0.9%
COc1cc(C(=O)NC(=S)Nc2nccs2)cc(OC)c1OC	-2.1%	-1.6%
CC(=O)Nc1ccc(CC(=O)N2CCN(Cc3ccccc3)CC2)cc1	i	4.2%
NC(=O)c1ccccc1NC(=O)/C=C/c1ccc(Cl)cc1	i	-22.0%
Cc1cccc(C(C)C)c1NC(=O)CN1C(=O)NC2(CCc3ccccc32)C1=O (configuration not stated)	-12.2%	-11.3%
CCc1nc2c(OCc3ccccc3C)cccn2c1N(C)C(=O)C1CC1	-23.6%	?
O=C1C2C(C(=O)N1/N=C/c1cc(Br)cc([N+](=O)[O-])c1O)C1C=CC2C12CC2 (configuration not stated)	nt	-18.1%
O=C(Nc1ccc(S(=O)(=O)Nc2ncccn2)cc1)c1ccc(Cl)c([N+](=O)[O-])c1	i	-5.0%
COc1ccc(-c2nc(CNS(=O)(=O)c3ccc(F)cc3)cs2)cc1	-21.5%	-17.8%
Cc1ccc(-c2cc(C(=O)OCC(=O)N(C)C3CCS(=O)(=O)C3)c3ccccc3n2)c(C)c1 (configuration not stated)	-0.3%	-8.6%
COc1cc2c(cc1OC)C(c1ccccc1)N(C(=O)CCl)CC2 (configuration not stated)	-8.7%	3.8%
COc1ccccc1OCC(=O)N1CCCCCCC1	i	-12.9%
COC(=O)[C@]12CCCCC=C1N(Cc1ccc3c(c1)OCO3)C(=O)[C@H](CC(=O)NCCc1ccccc1OC)C2	?	-20.4%
Cc1ccc(NC2=NCC(=O)N2C2CCCC2)c(C)c1	nt	-15.9%
Oc1ccc(N=Nc2cccc(C(F)(F)F)c2)cc1C=Nc1ccc(N2CCOCC2)cc1	-13.2%	-8.3%
CCOc1cc(/C=C2/NC(=O)N(CC(=O)OC)C2=O)ccc1O	-20.7%	-14.3%
Clc1ccc(C(c2nnnn2CCc2ccccc2)N2CCSCC2)cc1 (configuration not stated)	-23.7%	-11.0%
